# Beta2AR agonist – agonists of human beta-2 adrenergic receptor inducing internalization; Am2.2-beta2AR cells, FAP receptor internalization, flow cytometry; reference of the scale not given here; response, % (concentration not given with the values); hit rate 0.43% among 340,000;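 active = response above a set limit, near 3 SD of response in nonfluorescent compounds, cut at about 42% in these data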;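 note: stock transfer was 100 nL into about 11 µL; a reference agonist was the positive control; negative values mostly stem from fluorescent compounds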
# Target sequence (P07550 whole entry, looked up): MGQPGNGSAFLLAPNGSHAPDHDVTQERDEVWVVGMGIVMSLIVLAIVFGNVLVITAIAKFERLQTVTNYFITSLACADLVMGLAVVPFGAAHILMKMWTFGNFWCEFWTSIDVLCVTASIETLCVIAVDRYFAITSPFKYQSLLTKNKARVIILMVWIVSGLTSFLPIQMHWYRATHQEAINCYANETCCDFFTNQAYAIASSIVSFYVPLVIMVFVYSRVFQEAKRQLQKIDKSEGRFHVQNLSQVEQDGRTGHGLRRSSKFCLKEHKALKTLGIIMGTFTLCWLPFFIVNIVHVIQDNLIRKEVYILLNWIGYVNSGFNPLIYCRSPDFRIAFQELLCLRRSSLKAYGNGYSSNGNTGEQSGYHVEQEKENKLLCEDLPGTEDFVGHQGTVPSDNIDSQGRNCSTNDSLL
# Calb FLC – affects C. albicans growth with fluconazole. C. albicans CaCi-2 (fluconazole-resistant clinical isolate) + fluconazole, Alamar Blue growth, 48 h. growth inhibition, % (no concentration beside the values). hit rate 0.57% among 300,000. AID 1979;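 active = most replicates above 75%; inconclusive = exactly half above 75%; inactive = most below 75%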;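 note: all wells also contain fluconazole at 8 µg/ml as a sub-toxic cotreatment; 0% = median of DMSO wells and 100% = median of geldanamycin control wells; wells of about 8 µL received 7.5 nL stock; the first replicate is given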
# ALR H2O2 inh – human ALR oxidase inhibition via reduced H2O2; purified ALR, DTT oxidation, H2O2 HRP-luminol luminescence; hit rate 3.8% among 290,000; inhibition, % (concentration not given with the values); P55789;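 active = mean and each replicate at 75% or more; inconclusive = only one of the two met; inactive = neither met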;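 note: stock transfer was 7.5 nL into about 7.5 µL; 0% = neutral wells and 100% = wells with inactivated enzyme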
# Target sequence (P55789 whole entry, looked up): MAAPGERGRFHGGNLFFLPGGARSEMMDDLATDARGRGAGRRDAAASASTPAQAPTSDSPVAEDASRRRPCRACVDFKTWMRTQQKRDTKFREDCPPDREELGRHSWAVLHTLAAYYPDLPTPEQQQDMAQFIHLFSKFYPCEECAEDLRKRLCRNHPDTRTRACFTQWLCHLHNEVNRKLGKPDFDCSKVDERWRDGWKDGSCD
# LANA-H2B inh – blocks KSHV LANA binding to histone H2A/H2B. inhibition, % (test concentration not listed). hit rate 0.6% among 320,000. cell-free LANA-H2A/H2B peptide, fluorescence polarization. AID 2629; in the data active = inhibition mostly above about 10%, no sharp cut-off; inactive = mostly below about 6.7%;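 note: stock transfer was 7.5 nL into about 10 µL; 0% = median of vehicle wells and 100% = median of positive control wells; one replicate is shown; the record names a cut of 25% in any replicate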
# Vif A3G – inhibitors of Vif binding to APOBEC3G peptide, primary screen, biochemical, TR-FRET, GST-Vif 1-94, biotin-A3G peptide, dose response retest (AID 1117319) | TR-FRET GST-Vif / biotin-A3G peptide binding; higher % means a stronger effect; test concentration not given here; strong numbers were not always called active | inhibition, %, or IC50 in µM where a hit was titrated | hit rate 0.57% among 260,000;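 active = above the screen mean plus three standard deviations and confirmed in dose response; inconclusive = results disagree or hit not tested in dose response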;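 note: Vif residues 1-94 fused to GST binding biotinylated APOBEC3G peptide 110-148; 0% = full assay without inhibitor and 100% = GST in place of GST-Vif; retest series ran down from 100 µM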
# RanGTP-Impb inh – inhibitors of RanGTP-importin-beta interaction, primary screen, biochemical, FRET, CFP-Ran, YFP-importin-beta, homogeneous; hit rate 1.1% among 300,000; AID 2216; cell-free CFP-Ran/YFP-importin-beta FRET ratio; inhibition, % (no concentration beside the values);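 active = most replicates above 15%; inconclusive = exactly half above 15%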;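 note: 0% = DMSO wells and 100% = Ran loaded with GDP instead of GTP; wells of about 40 µL received 100 nL stock; the first replicate is given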
# HNF4A DNA FP – change in binding of human HNF4 alpha to DNA | hit rate 0.3% among 360,000 | AID 1224865 | P41235 | HNF4a-FITC DNA binding, fluorescence polarization, 1 h | activity change, % at 10 µM; in the data active = activity change above about 30%, passing the limit was not always enough;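 note: controls were the assay level and a saturating level of protein; the project sought stronger binding though the title names inhibitors; some compounds called inactive have numbers as strong as hits; positive values seem to mean higher polarization but the record does not say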
# Target sequence (P41235 whole entry, looked up): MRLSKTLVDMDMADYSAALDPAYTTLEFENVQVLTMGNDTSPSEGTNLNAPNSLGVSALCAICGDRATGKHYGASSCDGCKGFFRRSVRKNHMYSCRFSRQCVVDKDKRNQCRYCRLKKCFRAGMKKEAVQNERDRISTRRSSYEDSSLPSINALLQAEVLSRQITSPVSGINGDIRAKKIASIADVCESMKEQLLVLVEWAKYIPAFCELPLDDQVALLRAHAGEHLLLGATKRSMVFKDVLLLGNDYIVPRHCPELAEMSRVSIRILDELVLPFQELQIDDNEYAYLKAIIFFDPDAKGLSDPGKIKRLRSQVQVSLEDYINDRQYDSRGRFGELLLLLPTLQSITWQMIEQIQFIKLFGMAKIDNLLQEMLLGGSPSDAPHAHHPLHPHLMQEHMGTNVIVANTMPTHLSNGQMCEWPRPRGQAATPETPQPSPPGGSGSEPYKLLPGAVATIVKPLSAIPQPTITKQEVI
# Numbers without * were called inactive; ? = inconclusive; · = not tested or not shown; & = joins results of further samples. This is a random part of the collection; any-hit rate near 6.3%.
nr	compound	HNF4A DNA FP	LANA-H2B inh	Beta2AR agonist	Vif A3G	RanGTP-Impb inh	Calb FLC	ALR H2O2 inh
1	O=C(/C=C/c1ccc([N+](=O)[O-])cc1)Nc1cccc(C(=O)Nc2ccccc2C(=O)O)c1	-7.5	-1.1	15	·	-0.1	1	91*
2	COc1ccc(C(=O)Nc2ccc(C(=O)N3CCOCC3)cc2)cc1OC	-0.2	-1.3	-2	·	5.9	7	1
3	O=c1c([N+](=O)[O-])cccn1Cc1ccc(F)cc1Cl	0.5	-5.7	-5	·	-3.1	13	-1
4	Cc1ccc(-c2nnn(CCOc3cccc(Br)c3)n2)cc1	-0.5	2.9	8	?	0.8	-3	·
5	C=C(C)C(=O)Nc1cccc(C2=NOC3(C2)C[C@@H](C(N)=O)N(C(=O)c2ccc(OC)cc2)C3)c1 (stereo not given in full)	-84	5.8	-3	?	0.1	9	0
6	C=CCNC(=S)NCc1ccccc1	-1.4	-0.1	-3	2%	7.1	-2	·
7	CC(C)Oc1ccc(NC(=O)C2CCCNC2=O)cc1 (stereo not given)	-2.1	-6.0	-6	0%	0.2	-1	-13
8	Cc1cc(C)c(OCC(=O)OCC(=O)N2CCN(C(=O)c3ccco3)CC2)c(C)c1	-0.9	-4.0	-2	-5%	3.1	5	4
9	O=S(=O)(c1ccc(F)cc1)N1CCN(c2nc(-c3cccnc3)nc3ccccc23)CC1	1.1	-3.0	18	-4%	·	·	9
10	C=CCOc1ccccc1CN1CCCCCC1	0.2	-3.0	5	·	2.5	0	3
11	COc1cc2c(cc1OC)C(NNC(=O)c1ccc(Br)o1)=NC(C)(C)C2	1.1	-1.8	8	·	2.2	-7	21
12	CCCCOc1ccc(-c2nnn(CC(=O)NCc3ccco3)n2)cc1	-2.7	8.5	-7	?	2.6	-12	-2
13	Cc1cc(-c2csc(N)n2)c(C)n1CCC(C)C	2.4	14*	9	3%	4.3	-4	-2
14	CC(C)NC(=O)c1cccc(Cn2cc(Cl)cn2)c1	-2.2	-0.7	-1	-7%	3.7	-5	-7
15	O=C(CN(C(=O)c1ccccc1)N1C(=O)CCC1=O)c1cccs1	2.6	-7.1	1	-11%	-3.3	-7	-1
16	c1ccc(-c2cc3n(c2)CCc2ccccc2-3)cc1	-0.3	-1.6	11	-4%	11	13	9
17	CC(C)CNc1oc(-c2ccc(F)cc2)nc1C#N	2.2	6.2	-6	-5%	-0.4	17	46
18	O=C(NCc1cccnc1)c1ccc(Cl)c(Cl)c1	-2.6	-7.8	4	8%	-3.0	24	-3
19	COc1ccc(-c2cc(C(=O)N3CCCCCC3)c3cc(C)ccc3n2)cc1	-1.2	-0.6	10	·	0.0	-3	-7
20	O=C(Nc1ccc(N2CCOCC2)c(F)c1)c1cccs1	1.1	-1.1	-6	·	16*	-5	4
21	CCn1c(C(C)NC(=O)c2cccs2)nc2ccccc21 (stereo not given)	-0.2	3.1	-4	-4%	3.5	-1	-3
22	Nc1nccnc1C(=O)OCC(=O)NNC(=O)c1ccccc1	-2.0	5.3	-4	·	-2.6	0	6
23	N#Cc1c(-c2ccccc2)nc(-c2ccncc2)[nH]c1=O	-2.2	9.5	3	4%	2.4	-6	63
24	O=C(Nc1ccc(OC(F)(F)F)cc1)C1CCCN(S(=O)(=O)c2cccnc2)C1 (stereo not given)	-2.0	-7.4	-14	26%	3.5	15	·
25	CN1CCN(c2oc(-c3ccc([N+](=O)[O-])cc3)nc2C#N)CC1	-2.4	-1.0	11	16%	0.5	-2	-14

# Profiles from above:
# Record of COc1ccc(-c2cc(C(=O)N3CCCCCC3)c3cc(C)ccc3n2)cc1 = HNF4A DNA FP = -1.2; LANA-H2B inh = -0.6; Beta2AR agonist = 10; Vif A3G = ·; RanGTP-Impb inh = 0.0; Calb FLC = -3; ALR H2O2 inh = -7
# Record of CCn1c(C(C)NC(=O)c2cccs2)nc2ccccc21 (stereo not given) = HNF4A DNA FP = -0.2; LANA-H2B inh = 3.1; Beta2AR agonist = -4; Vif A3G = -4%; RanGTP-Impb inh = 3.5; Calb FLC = -1; ALR H2O2 inh = -3

# Other entries follow:
nr	compound	HNF4A DNA FP	LANA-H2B inh	Beta2AR agonist	Vif A3G	RanGTP-Impb inh	Calb FLC	ALR H2O2 inh
26	Cc1sc2ncnc(NCC(O)c3ccc([N+](=O)[O-])cc3)c2c1C (stereo not given)	-3.1	1.9	2	·	2.9	24	-13
27	Cc1sc2nc(CN3CCOCC3)nc(N3CCN(S(=O)(=O)c4ccccc4)CC3)c2c1C	1.6	3.1	11	·	·	·	-32
28	COc1ccc(NS(=O)(=O)c2cccc(C(=O)OCC(=O)c3c(N)n(C)c(=O)n(C)c3=O)c2)cc1	4.3	1.8	3	·	·	·	-5
29	COC(=O)C1=C(C)NC(=O)NC1c1ccc(N2CCC(c3ccccc3)=N2)cc1 (stereo not given)	11	0.8	0	-4%	-1.5	4	19
30	COc1ccc(N2CCN(C(=O)CCn3nnc4ccccc43)CC2)cc1	3.1	2.7	7	2%	7.8	3	90*
31	Cc1cc(Br)ccc1OCCOCCN1CCCC1	-2.2	-1.0	6	·	1.6	-26	-3
32	COC(=O)C1=C(C)N(Cc2ccccc2)C(=NCc2ccc(OC)cc2)N[C@H]1c1cccc(F)c1	3.6	-5.0	35	·	?	11	-25
33	O=C(CN1CCC(n2nnc3ccccc32)CC1)Nc1ccc2c(c1)CCC2	5.8	0.3	-7	-2%	0.1	0	·
34	COc1ccc(S(=O)(=O)N2CCN(C(=O)c3oc4ccccc4c3C)CC2)cc1	-3.8	-2.2	2	-1%	8.4	-4	-1
35	CCc1cc(=O)oc2cc(C)cc(OCC(=O)NCc3cccnc3)c12	0.2	-1.6	0	·	1.8	1	2
36	O=C(N/N=C/c1ccc(O)cc1)c1nc(-c2ccccc2)n(-c2ccccc2)n1	2.4	1.8	4	-6%	1.3	-1	98*
37	CCCNC(=O)c1ccc(Cn2cc(C(F)(F)F)ccc2=O)cc1	-1.6	1.0	5	-5%	1.3	-3	-6
38	CCC(C(=O)NC(C)(C)C)N(Cc1ccco1)C(=O)CNS(=O)(=O)c1ccc(OC)cc1 (stereo not given)	3.5	-3.2	-3	·	0.2	14	-1
39	CCOC(=O)CSc1nnc(CNC(=O)Cc2ccccc2)n1C	-0.5	-1.3	-1	?	4.3	7	-1
40	O=S(=O)(Nc1cccnc1)c1ccc(Cl)cc1	-1.3	3.3	-6	-6%	?	-7	0
41	O=C(/C=C/c1c(Cl)nc2ccccn12)Nc1ccc(F)cc1	-2.1	-6.9	-11	5%	2.5	35	2
42	CCOC(=O)C1C(=O)CC(C)(O)C(C(=O)OCC)C1c1ccc(Br)cc1 (stereo not given)	-1.3	-3.0	2	5%	-0.3	2	-14
43	CCOc1c(Cl)cc(CNc2ccc(N3CCCC3)cc2)cc1OC	-0.8	·	21	0%	1.1	5	·
44	CCC(=O)N1CCC(C(N)=O)(N2CCCCC2)CC1	-1.6	2.7	-3	·	-0.6	-8	-11
45	O=C(Nc1nc(-c2ccccc2)cs1)C1CCCO1 (stereo not given)	-1.2	1.4	-3	6%	-1.5	4	-10
46	Cc1ccc2cc(C#N)c(N3CCCN(S(=O)(=O)c4ccccc4)CC3)nc2c1C	19	-2.0	-5	-25%	7.1	3	-7
47	CCN(C(=O)COC(=O)c1cc(-c2ccccc2)nc2c1c(C)nn2-c1ccc(C)cc1)C1CCS(=O)(=O)C1 (stereo not given)	3.8	-3.0	12	-3%	1.7	13	-10
48	Cc1ccnc2nc(C(=O)Nc3nnc(-c4ccc(Cl)cc4)o3)nn12	-9.2	0.7	13	-6%	3.8	18	18
49	OCc1cn(-c2ccccc2)nn1	3.2	-4.4	10	·	0.8	5	-10
50	CCN(CC(=O)NC1CCS(=O)(=O)C1)Cc1nc2c(Br)cc(Br)cc2c(=O)[nH]1 (stereo not given)	4.4	1.1	-6	-14%	0.5	29	0
51	CCOc1ccc(OCCCC(=O)N2CCN(S(=O)(=O)c3ccccc3C#N)CC2)cc1	-1.6	-2.3	6	·	·	·	-9
52	COCCNC(=S)Nc1cc(OC)c(NC(=O)c2ccco2)cc1OC	-2.7	-1.8	1	-5%	7.2	-15	-2
53	Cc1oc(-c2ccc(C(F)(F)F)cc2)nc1CN(Cc1ccccn1)C[C@@H]1CCC(=O)N1	-3.2	9.5	6	2%	2.4	40	-21
54	Cc1c(NC(=O)CSc2ncnc3ccccc23)c(=O)n(-c2ccccc2)n1C	-2.4	2.7	5	3%	3.8	20	·
55	Cn1cccc1C(=S)N1CCOCC1	2.7	-3.0	-3	0%	-1.5	-3	1
56	OC(CCCN1CCCCC1)(c1ccccc1)c1ccccc1	3.4	17&0.6	-5	10%	-2.1	-13	·
57	CCC12OC(=N)C(C#N)(C1C)C(C#N)(C#N)C(c1ccccc1)O2 (stereo not given)	0.1	0.0	-1	8%	21*	11	-10
58	COc1cc(C(=O)NCc2nnc(SCC(=O)Nc3c(C)cc(C)cc3C)o2)cc(OC)c1OC	-2.4	2.5	2	·	-1.1	-5	-2
59	COCCN1Cc2cccc(C(=O)NCC3CCN(CC(C)C)C3)c2C1=O (stereo not given)	-2.1	0.0	-9	8%	?	-12	-7
60	CCn1cnc2c1c(=O)n(CC(=O)NCc1ccccc1)c(=O)n2Cc1ccccc1	0.9	2.8	-4	-5%	-0.7	29	-1
61	CCN(CC)C(=O)C1CCN(Cc2ccc(OCc3ccccc3)c(OC)c2)CC1	-1.0	-2.0	3	·	2.9	2	-5
62	COc1ccc(-n2c(O)c(/C=C3\C=Nc4ccccc43)c(=O)[nH]c2=O)cc1	3.9	·	3	·	-5.7	9	·
63	CCOc1cc(/C=C2\C(=N)N3N=C(C)SC3=NC2=O)ccc1OCCOc1cccc(OC)c1	-0.2	5.9	16	·	-1.9	2	-6
64	COc1cccc(OC)c1C(=O)N1CCN(S(=O)(=O)c2ccc(C)cc2)CC1	2.1	0.7	6	27%&-4%	-1.6	2	-8
65	COCCn1c(SCC(=O)N2CCCCCC2)nnc1-c1ccco1	-0.3	1.8	0	·	3.4	2	2
66	Cc1cc(NC(=O)CN2CCN(c3ccccc3O)CC2)no1	3.1	-6.1	-6	5%	?	?	58
67	Cc1cccc(OCC(=O)NNc2c3ccccc3nc3ccccc23)c1	2.6	4.0	16	31%	33*	-3	99*
68	CCc1nnc(NC(=O)C2=NN(C3CCS(=O)(=O)C3)C(=O)CC2)s1 (stereo not given)	-2.1	0.0	-3	?	?	7	-13
69	CC1(C)Cc2c(cnn2-c2cccc(F)c2)C(NC(=O)c2csnn2)C1 (stereo not given)	4.8	4.7	-9	·	1.0	-13	3
70	CN(C)S(=O)(=O)n1cc(/C=C(\NC(=O)c2ccccc2F)C(=O)NCCCn2ccnc2)c2ccccc21	4.8	·	6	·	-1.6	28	·
71	O=C1CCCCCN1CP(=O)(O)CCc1ccccc1	-0.3	-9.9	4	-2%	-2.9	-3	-7
72	Cc1noc(C)c1NC(=O)Nc1ccc2c(c1)C(=O)N([C@H](C)CO)C[C@H](C)[C@@H](CN(C)C(=O)Nc1ccc(C(F)(F)F)cc1)O2	-2.4	·	-6	-1%	·	·	·
73	O=c1c2ccccc2n2c(-c3cccc(Cl)c3)nnc2n1Cc1ccccc1	1.1	3.1	-5	3%	-3.9	8	0
74	COc1cc(C(=O)NCc2cc3cc(Cl)ccc3n2C)cc(OC)c1OC	1.1	1.0	-2	·	6.3	57	-9
75	COC(=O)C1=C(C)N(C)C(=O)NC1c1cccc2ccccc12 (stereo not given)	4.8	-10.0	-7	-4%	1.8	-9	-22
76	O=C1Cn2c(nc3ccccc32)N1c1cccc(C(F)(F)F)c1	0.0	15*	-13	4%	-2.2	22	-9
77	O=S(=O)(NCC1COc2ccccc2O1)c1ccc2ccccc2c1 (stereo not given)	0.6	4.4	6	10%	2.4	-27	-3

# Bioassay records (PubChem BioAssay)
